Ba CapD inh = blocks the Bacillus anthracis CapD enzyme. purified CapD enzyme, fluorescence intensity read-out; active compounds read low; some hits fall short of the stated cut. z-score (test concentration not listed). 140,000 compounds, 0.23% hits;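 active = z-score under -4 in either of two replicates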;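 note: stock transfer was 100 nL into about 40 µL; score is relative to mean and spread of the plate; one replicate is shown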
AID504770 = growth inhibitors of E. coli YBA685 in a screen for V. cholerae RctB (chromosome II replication) inhibitors; z-score (test concentration not listed); E. coli YBA685 rctB-dependent plasmid, OD600 growth, 3 h; active compounds read low; AID 504770; 130,000 compounds, 0.27% hits;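 active = z-score under -2 on both plates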;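 note: wells of about 30 µL received 100 nL stock; score is relative to mean and SD of the test wells; the first replicate is given; strong numbers were not always called active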
Numbers without * were called inactive; i = inactive; x = no result given; & = joins results of further samples.

Every second line gives: Ba CapD inh, AID504770
- COC(=O)c1sc2nc(N)c(C#N)c(-c3ccc(OC)c(OC)c3)c2c1N
 : 0.64, x
- NC1c2ccccc2-c2ccccc21
 : x, 1.6
- Cc1ccc(C2OC3(C(=O)c4ccccc4C3=O)C3C(=O)N(c4cccc(Cl)c4Cl)C(=O)C23)cc1 (stereo not given)
 : -0.025, x
- CC(=O)OC1C(c2ccccc2)=NN(C(C)=O)C1c1ccccc1 (stereo not given)
 : 0.63, -0.75
- Cc1ccc(C(=O)C2CN3CCC2CC3)cc1 (stereo not given)
 : -0.2, -0.5
- Cc1cccc(C(=O)N2CCOCC2)c1
 : -0.54, -0.2
- Cc1cc(Cl)ccc1OC(C)C(=O)NNC(=O)C1CCN(c2ccc(C(F)(F)F)cn2)CC1 (stereo not given)
 : 2.3, x
- CCCC(C)NC(=O)c1sc2nc(C)nc(N3CCOCC3)c2c1C (stereo not given)
 : 0.78, x
- COc1ccc(OCCSc2nc3ccccc3n2CCO)cc1
 : -0.6, x
- CC(=O)Nc1cc2c(cc1C(=O)c1ccc(Br)cc1)OCCO2
 : -0.19, -0.15
- COc1ccc(C(=O)COC(=O)c2nn(C)cc2Cl)cc1
 : x, -0.7
- O=C(CS(=O)(=O)c1ccccc1)Nc1cccnc1
 : x, 1
- CC1CCc2[nH]nc(C(=O)O)c2C1 (stereo not given)
 : -0.045, 0.35&-0.15
- Cn1c(=O)n(C)c2cc(C(O)COc3ccc(CNC(C)(C)C)cc3)ccc21 (stereo not given)
 : 0.67, 0.35
- O=C(c1ccc2c(=O)n(Cc3ccc(Cl)cc3)c(=S)[nH]c2c1)N1CCN(Cc2ccc3c(c2)OCO3)CC1
 : -0.45, x
- O=C(Nc1cccc(C(F)(F)F)c1)c1cc2ccccc2o1
 : 0.075, -1.2
- O=C(CCc1ccccc1)N1N=C(C(F)(F)F)CC1(O)c1ccc(F)cc1 (stereo not given)
 : -0.94, x
- O=C(NCc1cccn1Cc1ccccc1)Nc1ccccc1
 : 0.94, 2.2
- COC(=O)C1(C(F)(F)F)C2C=CC(C2)N1S(=O)(=O)c1ccccc1 (stereo not given)
 : 0.78, 0.6
- CCCC(=O)NCc1cc(-c2nn(C)c(=O)c3ccccc23)ccc1C
 : 0.3, 0
- CCN(C(=O)CN(C)C1CCCCC1)c1c(N)n(Cc2ccccc2)c(=O)[nH]c1=O
 : x, 0.15
- O=C(Cn1cnc2sc3c(c2c1=O)CCCC3)NCC(=O)N1CCN(c2ccccn2)CC1
 : 1.5, x
- COc1ccc(C(C(=O)NN(C)c2ccccc2)(c2ccccc2)c2ccccc2)cc1
 : -0.28, x
- COC(=O)CNC(=O)c1cc(=O)c2ccccc2o1
 : x, -0.25
- CCOC(=O)c1c(-c2ccccc2)n2c3c(cccc13)SCC2
 : 1.4, -0.05
- O=C(CSc1ncnc2ccccc12)Nc1cccc(F)c1
 : -0.59, -1.9
- C=C(C)c1cccc(C(C)(C)NC(=O)NCc2cccnc2)c1
 : x, 0.2
- O=C(CSCc1cnn(-c2ccccc2)c1-n1cccc1)N1CCC(N2CCCCC2)CC1
 : -0.58, -0.4
- O=C(CCCn1c(=O)c2ccccc2n(CC(=O)c2ccccc2)c1=O)NC1CCCC1
 : 0.65, 0.1
- O=C(NCc1nnc(SCC(=O)N2CCc3ccccc32)n1-c1ccc(F)cc1)c1cccs1
 : -0.73, x
- Cc1noc2ncnc(N3CCCC(C(=O)NCCCN4CCCC4=O)C3)c12 (stereo not given)
 : -0.17, -1.2
- O=C(NC(Cc1ccccc1)C(=O)OCc1ccccc1)c1cccs1 (stereo not given)
 : -1.1, -0.2
- CCOc1ccccc1OCC(=O)OC1CCOC1=O (stereo not given)
 : x, 0.6
- O=c1c2c(nc3[nH]ncn13)CCN(Cc1ccccc1)C2
 : -2, -0.65
- CC(=O)N(CN1C(=O)c2ccccc2C1=O)c1ccc2ccccc2c1
 : 7.7, -0.25
- CCS(=O)(=O)N1CCC(Oc2ccc(-n3cnnn3)cc2)CC1
 : 0.21, -1
- Cc1ccc(N2C(=O)C(C=NCc3ccc(C(=O)O)cc3)C(=O)NC2=S)cc1 (stereo not given)
 : -0.11, -1.7
- Cc1ccc(N2CCN(C(=O)N3CCCCCC3)CC2)cc1Cl
 : -1.9, 1.9
- Oc1cc(C(F)(F)F)cc(C(F)(F)F)c1
 : -0.44, 1.4
- CCN(Cc1ccncc1)C(=O)C(COC(=O)NCCc1c[nH]c2ccc(C)cc12)c1ccccc1 (stereo not given)
 : -0.11, x
- CS(=O)(=O)c1ccc(F)cc1
 : x, 0.45
- O=C(c1cccc2c1NC(c1ccc(Cl)cc1Cl)C1CC=CC21)N1CCCC1 (stereo not given)
 : -0.58, x
- c1csc(-c2nc3ccc4ccccc4c3c3c2CCC3)c1
 : 42, 1.2
- COc1ccccc1S(=O)(=O)CC(SC#N)c1ccccc1 (stereo not given)
 : 0.28, -0.6
- Cc1noc(C(F)(F)F)c1C(=O)O
 : -0.27, -1.1
- COc1cc2c(cc1OC)-c1nnc(-c3cccnc3)n1C1(CCCC1)C2
 : x, -0.45
- Cc1ccccc1-c1n[nH]c(=S)n1/N=C/c1ccc(N(C)C)cc1
 : 4.4, 0.15
- c1ccc2[nH]c(-c3ccc(Sc4nnnn4C4CCCC4)nc3)nc2c1
 : x, -0.45
- COc1cc(/C=N/N=C2/C(=O)Nc3ccccc32)ccc1OCC(=O)N1CCOCC1
 : x, 0.6
- CC(C)C(NC(=O)c1ccccc1F)C(=O)Nc1ccc(N2CCOCC2)cc1 (stereo not given)
 : x, -0.45

The results go on.
structure | Ba CapD inh | AID504770
Cc1cccc2cc(C=C(C#N)C#N)c(Cl)nc12 | x | -1.1
CCN(CC)CCNC(=O)c1sc2ncnc(N3CCN(c4ccc(OC)cc4)CC3)c2c1C | -0.15 | x
CCn1cc(C(=O)NCc2ccc3c(c2)OCO3)c(=O)c2cc(S(=O)(=O)N(C)C)ccc21 | -0.14 | 0.6
CC1(C)CC(=O)C=C(SCc2cccc(Cl)c2)S1 | -0.26 | 0.3
CCOC(=O)C(C)Oc1ccc(NC(=O)C(Cl)(Cl)Cl)cc1 (stereo not given) | 0.24 | x
c1ccc2[nH]c(Nn3cnnc3)nc2c1 | 0.75 | -0.65
Cc1ccc(NC(=O)Cn2c(=O)/c(=C3\C(=O)Nc4ccccc43)s/c2=C\C#N)cc1 | x | -0.05
O=C(C1=C(O)C(=O)N(c2nncs2)C1c1cccs1)c1cccs1 (stereo not given) | x | -0.7
CS(=O)(=O)c1ccc(S(=O)(=O)NCCc2c[nH]c3ccc(Cl)cc23)cc1 | 0.32 | x
CCOC(=O)c1cnn(C)c1N | 0.09 | x
NC(=O)/C=C\c1cn(-c2ccccc2)nc1-c1ccc(F)cc1 | 1.4 | 0.85
O=C(NNC(=O)C1c2ccccc2Oc2ccccc21)c1cccc(C(F)(F)F)c1 | 0.17 | x
OCCN1CCN(C(=S)/N=C(/Nc2ccccc2)c2ccccc2)CC1 | x | 0.6
COc1cccc(/C=C2/SC(=Nc3ccccc3Cl)NC2=O)c1OC | 0.43 | x
Cc1sc2nc(CN3CCOCC3)nc(NS(=O)(=O)c3ccc4c(c3)OCCO4)c2c1C | x | 1.4
CN1CCC2(CC1)CC1CC3C=CC1(CN2)O3 (stereo not given) | 0.54 | -0.4
Cc1c(S(=O)(=O)c2ccc(Cl)cc2)cnc2cc(C3CC3)nn12 | 1.5 | -0.25
Cc1ccc([N+](=O)[O-])c(NC(=O)NC(=O)c2c(Cl)cccc2Cl)c1C | 0.35 | x
CCOC(=O)c1c(C)oc2ccc(N(C(=O)c3ccc(C)cc3)S(=O)(=O)c3ccccc3)cc12 | -0.4 | x
COC(=O)Cn1c(=N)n(CCN2CCCCC2)c2ccccc21 | -0.18 | 0.8
Cc1cc(C)nc(NS(=O)(=O)c2ccc(Nc3nc(-c4sc(N)nc4C)cs3)cc2)n1 | -0.67 | x
Cc1nc2scc(CC(C)C)c2c(=O)[nH]1 | x | 0.85
O=C(CCCn1sc2ccccc2c1=O)Nc1ccccc1F | -1.5 | -1.1
CC(C)N1CCC(=O)N(c2ccccc2)C1=O | -0.18 | -0.45
CCOc1ccc(-c2cc(N)n(S(=O)(=O)c3ccccc3)n2)cc1 | 0.03 | 1.8
CC(=O)NC(=O)c1cc2cc(Br)ccc2oc1=Nc1ccc(F)cc1F | -0.38 | x
C=CCn1c(NCc2ccc(N(C)C)cc2)nc2ccccc21 | -0.025 | 0.65
Clc1ccc(C=NCC2COc3ccccc3O2)cc1 (stereo not given) | 0.035 | 0.05
COc1ccc(Br)cc1C1N(c2ccc(Cl)cc2)CCN1c1ccc(Cl)cc1 | 0.27 | x
COC(=O)CSc1nc2ccccc2o1 | x | 1.6
COC(=O)c1cc(-c2ccc(Cl)c(Cl)c2)n(-c2ccc(F)cc2)n1 | 0.74 | x
CCc1cccc(NC(=O)OC2CCN(C)CC2)c1 | 0.49 | 0.05
Cc1cccc(NC(=S)N(CCN(C)C)Cc2cc3cc4c(cc3[nH]c2=O)OCO4)c1 | x | -0.4
Nc1cccc2c1C(=O)N(CCOc1ccccc1F)C2=O | x | 1.2
C/C(N)=C(/C#N)C(=O)CN(C)C1CCCCC1 | x | -0.05
CN(C)CCSc1nnc(NCc2ccccc2O)s1 | x | -1.1
Oc1ccccc1N=Cc1c(Cl)nc2sccn12 | -0.4 | 2.2
CN(C)/N=C(\NO)c1c(Cl)cccc1Cl | 0.15 | 0.3
Cc1ccc(NC(=O)CSc2nc3cc(C(=O)NCCCOC(C)C)ccc3c(=O)n2Cc2ccco2)cc1Cl | 1.3 | x
CCCCCCCCCCCCCCCCCC(=O)OCC1OC2OC(C)(C)OC2C2OC(C)(C)OC12 (stereo not given) | -0.34 | x
O=C(Nc1ccc(-c2nc3ccccc3o2)cc1)C1=COCCO1 | 6.1 | -0.25
CCOC(=O)CNc1ccc(Cl)c(Cl)c1 | -1.3 | x
CCCc1c(C(=O)O)cnn1-c1ccc(Cl)cc1 | -0.17 | x
O=C(C[n+]1cc(-c2ccccc2)n2c1CCCCC2)c1ccc(Br)cc1 | -0.75 | x
COc1ccc(OC)c(-c2nc3c4ccccc4c4ccccc4c3[nH]2)c1 | 41 | x
CCOC(=O)N1CCC(NC(=O)c2nn(-c3ccc(C)cc3)c(=O)c3c2c2ccccc2n3C)CC1 | 0.51 | 0
COc1cc(OC)nc(Oc2cccc(F)c2C(=O)O)n1 | -0.58 | x
CC(C)(Oc1ccc(Cl)cc1)C(=O)OCCN1CCCC1=O | 0.42 | 2.1
CCn1c(-c2ccccc2)cs/c1=N/NC(=O)c1ccncc1 | x | 2.5
S=c1[nH]nc(-c2ccncc2)n1Cc1ccccc1 | -0.33 | 1.7&-0.85

Rewritten with each value named: four of the compounds above
> COC(=O)c1cc(-c2ccc(Cl)c(Cl)c2)n(-c2ccc(F)cc2)n1
  Ba CapD inh: 0.74
  AID504770: x

> CCc1cccc(NC(=O)OC2CCN(C)CC2)c1
  Ba CapD inh: 0.49
  AID504770: 0.05

> Cc1cccc(NC(=S)N(CCN(C)C)Cc2cc3cc4c(cc3[nH]c2=O)OCO4)c1
  Ba CapD inh: x
  AID504770: -0.4

> Nc1cccc2c1C(=O)N(CCOc1ccccc1F)C2=O
  Ba CapD inh: x
  AID504770: 1.2

Record cards, from the list above.
Record of `CC(=O)NC(=O)c1cc2cc(Br)ccc2oc1=Nc1ccc(F)cc1F` : Ba CapD inh: -0.38; AID504770: x
Record of `CCCCCCCCCCCCCCCCCC(=O)OCC1OC2OC(C)(C)OC2C2OC(C)(C)OC12` (stereo not given) : Ba CapD inh: -0.34; AID504770: x

Additional entries:
structure | Ba CapD inh | AID504770
COc1ccc(N(CC(=O)Nc2ccc(C(C)C)cc2)S(=O)(=O)c2ccc(OC)c(OC)c2)cc1 | -0.17 | x
COc1ccc(-c2nc3n(c2N)CCS3)cc1 | i | -0.55
CC(=O)N1CC(C(=O)Nc2cccc3ncccc23)Oc2ccccc21 (stereo not given) | x | -0.75
NC1=NC(=Nc2ccccc2)c2ccccc21 | -1.1 | 0
O=C(CCCOc1ccc(Cl)cc1)N1CCCCCC1 | -0.52 | -0.7
CCOC(=O)N1CCC(NC(=O)CSc2nc3ccccc3n2S(=O)(=O)c2cc([N+](=O)[O-])ccc2C)CC1 | -0.19 | x
O=C(O)C1C2C=CC(C2)C1C(=O)NCc1ccc2c(c1)OCO2 (stereo not given) | -0.15 | 0.4
CC(=O)OCC(=O)[C@@]1(O)CCC2C3CCC4CC(=O)CCC4(C)C3CCC21C (stereo not given in full) | 0.74 | 1.4
CC(C)(C)OC(=O)N1CCCN(C(=O)Nc2ccccc2)CC1 | -0.34 | -0.55
CC(C)N=Cc1cc2n(c1O)-c1ccccc1C2=O | -3.6 | -0.05
CC(C)(C)n1nc2c(c1NC(=O)/C=C/c1ccccc1)CSC2 | 0.37 | 0.25
Cc1ccc(-c2ccc(N)cc2)cc1 | 13 | -0.8
COC(=O)CCC(=O)c1oc2ccc(Cl)cc2c1N | 28 | x
CCCS(=O)(=O)c1c(S(=O)(=O)CCC)c2ccccn2c1C(=O)N/N=C/c1ccccc1 | 0.6 | x
Cc1cc(C(F)(F)F)nn1CC(=O)Nc1ccc2c(c1)OCO2 | 0.64 | -0.15
CCCCN(CC)C(=O)c1sc2ncnc(N3CCN(c4ccc(OC)cc4)CC3)c2c1C | -0.11 | -0.35
O=C(O)/C=C\C(=O)NCc1ccc2c(c1)OCO2 | x | -0.5
Cc1ccccc1S(=O)(=O)Cc1ccc(C(=O)NCCCN2CCCC(C)C2)o1 (stereo not given) | 0.82 | -0.8
CC(=O)Oc1cn(C(C)=O)c2ccccc12 | x | 1.2
FC(F)(F)c1cc(-c2cccnc2)nc2cc(C3CC3)nn12 | 0.32 | -0.45
Cc1cc(/C=C2\NC(=S)NC2=O)c(C)n1-c1ccc(Br)cc1 | -0.45 | x
Cc1ccc(C2(c3ccc(C)cc3)CC2C(=O)Nc2cccc(C)c2)cc1 (stereo not given) | -0.23 | x
Cc1ccc(Nc2nc3nonc3nc2NC(C)(C)C)cc1C | -2 | x
CCc1ccc(NC(=S)NC(=O)/C=C/c2ccco2)cc1 | -3.3 | 2

Source: PubChem
